# Bioassay records as filed in PubChem.
# TRPML1 inh: qHTS for Inhibitors of the Human Mucolipin Transient Receptor Potential 1 (TRPML1); TRPML1-inducible cells, Ca2+ dye fluorescence, FDSS; hits give low values; inhibition of EC80 agonist-evoked calcium signal; activity change, negative = inhibition, % (test concentration not listed); hit rate 0.02% among 390,000; AID 624415, 2012; in the data active means activity change below about -50%; inconclusive means about -30% to -50%; inactive means above about -30%;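 further: stimulus is agonist 54-4 at its EC80 concentration; on the % scale 0 is the no-effect control and ±100 the full control effect; compound concentration not given in the record; the text of the record puts the active cut at -80%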
#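 TRPML1-DL cells, Tet-induced overnight (~16 h, 37 °C) at 1,500 cells/well, were loaded with Ca8 no-wash dye plus quencher for 45-90 min at room temperature. Compounds were pinned during FDSS kinetic reading; agonist 54-4 at EC80 (4 uM final) then added.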
# TRPML1 ag: qHTS for Agonists of the Human Mucolipin Transient Receptor Potential 1 (TRPML1); Mucolipin-1 (Homo sapiens), Q9GZU1; TRPML1-expressing cells, Ca2+ dye fluorescence, FDSS; host cell line not named in the record; reference of the full effect not given here; activation, % (no concentration beside the values); hit rate 0.12% among 410,000; in the data active = activation above about 50%; inconclusive = about 30% to 50%; inactive = below about 30%; further: 0% is about no effect; the text of the record puts the active cut at 80%
#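 Cells: TRPML1-DL, 1X Tet inducer, ~16 h at 37 degrees C/5% CO2. Dye: ABD Ca8 no-wash + quencher, 45-90 min RT. Read: 10 s baseline, compound add, 110 s agonist phase; 54-4 EC80 (4uM final), 110 s antagonist phase.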
# CtBP-E1A inh: qHTS Assay for Inhibitors of the CtBP/E1A Interaction. activity change, % (concentration not given with the values). hit rate 0.49% among 340,000. AlphaScreen GST-E1A/His-CtBP binding, 1536-well; hits give low values; control for the full effect not named in the record; in the data active means activity change below about -65%; inconclusive means about -30% to -65%; inactive means above about -30%; further: on the % scale 0 is the no-effect control and ±100 the full control effect
#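 In 5 uL wells, 23 nL compound meets equimolar GST-E1A and His-CtBP (5X stock 125 nM each) for 2 h, 37 °C. Beads (5X, 50 ug/mL) then 1 h, 37 °C, dark.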
# D2 potentiator: Beta-Arrestin HTS for Positive Allosteric Modulators of the Human D2 Dopamine Receptor: Potentiators | D(2) dopamine receptor (Homo sapiens), P14416 | DiscoveRx D2 beta-arrestin cells, luminescence, 90 min; 100% = 57 uM dopamine signal | potentiation, % (concentration not given with the values) | hit rate 0.23% among 360,000 | AID 624464, 2012; active = potentiation of 50% or more; inconclusive = 30% to 50%; inactive = 30% or less;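 further: compound concentration not given in the record; tested on top of an EC20 dose of dopamine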
#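 PathHunter beta-arrestin assay in DiscoveRx D2 cells. Compounds were added with an EC20 of dopamine (50 nM final) for 90 min at 37 deg C. Luminescence was read 1 h after detection reagent, with 57 uM dopamine as the EC100 control.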
# Six1-Eya2 blk: qHTS Assay for Inhibitors of the Six1/Eya2 Interaction; AlphaScreen GST-Six1/His-Eya2 binding, biochemical; hits give low values; control for the full effect not named in the record; activity change, % (no concentration beside the values); hit rate 0.56% among 360,000; AID 651725, 2012; in the data active = activity change below about -65%; inconclusive = about -30% to -65%; inactive = above about -30%; further: on the % scale 0 is the no-effect control and ±100 the full control effect; compound concentration not given in the record
# Target sequence (O00167 whole entry, looked up): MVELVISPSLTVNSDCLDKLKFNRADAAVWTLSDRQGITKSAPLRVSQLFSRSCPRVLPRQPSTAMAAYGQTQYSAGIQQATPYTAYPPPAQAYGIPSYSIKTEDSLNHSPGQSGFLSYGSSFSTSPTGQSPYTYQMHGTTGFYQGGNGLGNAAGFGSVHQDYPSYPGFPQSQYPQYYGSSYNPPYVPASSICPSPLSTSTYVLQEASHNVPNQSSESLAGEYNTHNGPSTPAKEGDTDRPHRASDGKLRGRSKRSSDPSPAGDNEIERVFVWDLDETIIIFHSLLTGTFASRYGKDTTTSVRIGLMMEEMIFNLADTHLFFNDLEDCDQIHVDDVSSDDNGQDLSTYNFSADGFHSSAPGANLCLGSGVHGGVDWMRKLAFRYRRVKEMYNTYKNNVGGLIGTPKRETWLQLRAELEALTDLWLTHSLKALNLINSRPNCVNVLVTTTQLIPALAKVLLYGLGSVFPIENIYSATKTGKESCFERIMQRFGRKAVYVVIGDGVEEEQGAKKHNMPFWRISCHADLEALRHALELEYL
# Target sequence (Q15475 whole entry, looked up): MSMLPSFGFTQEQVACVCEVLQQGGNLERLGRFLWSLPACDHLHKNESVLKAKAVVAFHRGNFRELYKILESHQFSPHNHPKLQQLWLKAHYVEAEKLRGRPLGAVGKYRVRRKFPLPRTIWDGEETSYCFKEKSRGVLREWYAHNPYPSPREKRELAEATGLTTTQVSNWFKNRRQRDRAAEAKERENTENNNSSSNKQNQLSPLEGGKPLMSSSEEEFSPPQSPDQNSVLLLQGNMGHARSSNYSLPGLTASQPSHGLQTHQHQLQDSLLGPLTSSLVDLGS
#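 AlphaScreen luminescence read after one hour at 37 °C in darkness. Pin-transferred compounds met GST-Six1 and His-Eya2 protein (5X stock 250 nM/500 nM) plus glutathione donor and Ni-chelate acceptor beads (5X, 50 ug/mL).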
# TRPV1 potentiator: HTS Assay for Compounds that Act as Potentiators of the Vanilloid Receptor 1; TRPV1-expressing cells, Fluo-8 calcium influx, capsaicin EC20 potentiation; host cell line not named in the record; control for the full effect not named in the record; potentiation, % at 8.33 µM; hit rate 0.02% among 320,000; active means potentiation above 80%; inconclusive means 30% to 80%; inactive means below 30%; further: 0% is about no effect
#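 Fluo-8 calcium influx in TRPV1-expressing cells, kinetic read (ex 480/em 520 nm). Compound added and read 3 min for agonist activity, followed by capsaicin at EC20 final and 2 min further read for enhancement.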
# Starred values were filed as active, the others as inactive; . = not tested or not shown.
SMILES,TRPML1 inh,TRPML1 ag,CtBP-E1A inh,D2 potentiator,Six1-Eya2 blk,TRPV1 potentiator
CC(=O)Nc1ccc(-c2ccnc3c2CC(C(=O)NCc2ccco2)O3)cc1 (stereo unspecified),.,0.2,-19,8,7,.
C[C@@H]1CN([C@H](C)CO)C(=O)CCCn2nncc2CO[C@H]1CN(C)Cc1ccncc1,11,-0.2,4,3,1,.
N#Cc1ccc(NC(=O)CN2C(=O)NC3(CCCC3)C2=O)cc1,12,0.0,1,-7,8,-1
CCN(CC(=O)NCc1ccc(Cl)cc1)C(=O)c1ccc2cc(OC)ccc2c1,13,1.2,8,-3,-11,7
O=C(O)CSCC(=O)NC1CCCc2ccccc21 (stereo unspecified),7,0.5,5,-3,5,2
CCOc1ccc(NC(=O)c2cccnc2SC)cc1,14,0.9,0,-15,1,-4
CCC(C)[C@H](NC(=O)N1CCCCCC1)C(=O)OC (stereo partly specified),-7,-0.3,.,-17,-1,-1
O=C(COC(=O)CNC(=O)c1ccc(Br)cc1)Nc1nnc(-c2ccccc2)o1,-4,0.8,-6,5,-16,18
CC1=NN(c2cccc(F)c2)C(=O)/C1=C/c1ccc(N(C)C)cc1,2,1.3,-3,-18,12,-20
COc1cc(C(=O)OCC(=O)N2CC(C)OC(C)C2)cc(OC)c1OC (stereo unspecified),8,0.4,6,-3,5,-3

# The last 3 records of the section before are carried over, then new ones follow.
SMILES,TRPML1 inh,TRPML1 ag,CtBP-E1A inh,D2 potentiator,Six1-Eya2 blk,TRPV1 potentiator
O=C(COC(=O)CNC(=O)c1ccc(Br)cc1)Nc1nnc(-c2ccccc2)o1,-4,0.8,-6,5,-16,18
CC1=NN(c2cccc(F)c2)C(=O)/C1=C/c1ccc(N(C)C)cc1,2,1.3,-3,-18,12,-20
COc1cc(C(=O)OCC(=O)N2CC(C)OC(C)C2)cc(OC)c1OC (stereo unspecified),8,0.4,6,-3,5,-3
CCN(CC)S(=O)(=O)c1ccc(C(=O)NCC(=O)NCCCc2ccccc2)cc1,6,-0.1,2,-7,2,7
C/C(=N\c1nc2ccccc2n1C)c1cc(Cl)ccc1O,3,-0.4,6,-14,2,5
COc1ccccc1CN(C)C(=O)c1ccc(S(=O)(=O)Nc2c(C)n(C)n(-c3ccccc3)c2=O)cc1,10,-0.2,-2,-5,3,.
CCOC(=O)NCc1ccc(S(=O)(=O)Nc2ccc(C)cc2)cc1,0,1.4,0,-1,-1,3
CC1CCN(S(=O)(=O)N2CCCC(C(=O)NCc3ccc(F)cc3)C2)CC1 (stereo unspecified),-5,0.0,-8,-9,-15,-17
COc1ccc(NC(=O)CSc2nnc(C)c(=O)n2N)cc1,27,0.1,-1,-1,-1,-2
CCOc1ccccc1NC(=O)CSc1ccc2nnc(-c3cccnc3)n2n1,-6,-0.5,-85*,-9,-79*,16
CCOc1ccc(NC(=O)CSc2ccc(-c3ccco3)nn2)cc1,-12,-0.3,-1,4,-14,-7
CC(C)Oc1ccc(C(CC(=O)O)c2ccc(F)cc2)cc1 (stereo unspecified),2,0.5,0,0,0,4
O=C(c1cccc([N+](=O)[O-])c1)N1CCN(c2ccc(N3CCOCC3)nn2)CC1,-13,0.1,4,-3,12,14
CC(=O)Nc1ccc(S(=O)(=O)NCCC(=O)Nc2cc(C)ccn2)cc1,-8,-0.5,1,-19,2,-4
Cn1c(SCC(=O)NNC(=O)Nc2ccccc2)nnc1-c1ccccc1,8,1.0,2,-3,0,20
Cc1ccc(S(=O)(=O)Nc2cc3c4c(c2)C(C)C(=O)N4CCC3)cc1 (stereo unspecified),-2,0.0,0,9,5,-4
CC(C)(C)c1ccc(NC(=O)CON=C(N)c2ccccc2)cc1,-22,-0.6,-23,-1,54,-17
CC(=O)c1ccc(OCCCC(=O)NC2CCCc3ccccc32)cc1 (stereo unspecified),14,2.0,-15,-10,1,-8
CCN(CC)S(=O)(=O)c1cc(OC)c(Cl)cc1OC,2,-0.5,.,-5,11,-1
Cc1onc(-c2c(F)cccc2Cl)c1C(=O)N=C(N)N1CCCC1,5,-0.1,-3,-8,6,-1
O=C(CSc1nc2c(c(=O)n1-c1ccccc1)SCC2)N1CCOCC1,16,0.9,3,3,1,-13
CCOc1ccc(C(=O)NC2CCN(S(=O)(=O)CC)CC2)cc1,-4,-0.8,-1,-4,-2,5
CN(C)S(=O)(=O)c1cccc(NC(=O)COc2ccccc2C(=O)NCc2ccccc2)c1,33,0.4,3,-11,-3,0
Cc1ccc(CNC(=O)C2CC(c3ccccc3[N+](=O)[O-])=NO2)cc1 (stereo unspecified),3,-1.0,5,-2,-1,30
COc1cccc(NC(=O)CN(C)C(=O)CCCc2c[nH]c3ccccc23)c1,8,0.4,-30,-4,-20,21
CCN(CC)Cc1c(C(=O)N2CCc3ccccc3C2)nc2ccc(Cl)cn12,5,-0.4,-23,-8,-1,-27
CCn1c(CCNC(=O)c2cccs2)nnc1SCC(=O)Nc1nc(-c2ccccc2)cs1,3,0.1,-27,1,-23,16
O=C1CC(N2CCCCC2)C(=O)N1c1ccccc1 (stereo unspecified),0,-0.6,4,-6,-3,-4
CN(CCc1ccccc1)C(c1ccnc2ccccc12)c1nnnn1-c1ccc2c(c1)OCCO2 (stereo unspecified),.,1.7,0,.,-13,.
COc1ccc(Nc2nc(NCc3ccco3)nc(N/N=C/c3ccccc3Cl)n2)cc1,25,0.0,-6,-19,-13,-16
CCOC(=O)C1CCCN(C(=O)CSc2ccc(NC(C)=O)cc2)C1 (stereo unspecified),-11,1.4,1,5,6,5
Cc1ccc(N2CC(C(=O)N3CCC(c4nc5ccccc5[nH]4)CC3)CC2=O)cc1C (stereo unspecified),6,0.3,-1,-7,3,-7
O=C(NC(=S)NCCc1ccccn1)c1ccco1,-20,0.6,-16,-4,0,-9
Cc1ccc(-c2cc3nc(C)cc(NCc4ccco4)n3n2)cc1,33,-0.3,5,-8,-1,-4
Cc1cc(C(N)=O)c2ccccc2n1,11,0.2,10,8,5,-13
COc1cccc(CN2CC(C(=O)NCCOc3cccnc3)CCC2=O)c1 (stereo unspecified),1,0.2,-9,-5,5,-10
COc1ccc(CCN2CC3=C(C2=O)C(c2ccccc2)NC(=O)N3C)cc1OC (stereo unspecified),4,0.5,-3,0,4,16
O=C(CCCc1cccs1)Nc1ccc2c(c1)OCO2,-6,0.4,-6,-7,-29,-13
COc1ccc(NC(=O)c2cccc(F)c2)cc1Cl,-2,1.0,-23,0,2,-13
COc1ccc(S(=O)(=O)NCCC(=O)OCC(=O)NC2CC2)cc1,1,0.2,3,3,6,.
O=C1c2ccccc2C(=O)N1Cc1ccco1,11,0.4,5,-17,3,4
COc1cc2c3c(c1)C(C)CC(C)(C)N3C(=O)C2=O (stereo unspecified),22,0.3,0,6,-10,6
CCOC(=O)c1cnc2cc(F)c(F)cc2c1N1CCOCC1,7,1.2,4,1,2,-11
Cc1ccc(Cl)cc1N1CCN(C(=O)CSc2ccsc2[N+](=O)[O-])CC1,13,-0.1,-12,7,-13,6
O=C(c1cccnc1)N1N=C(C2CCCCC2)CC1(O)C(F)(F)F (stereo unspecified),10,-0.8,-2,-4,-1,13
Cc1ccc(-c2nn(-c3ccccc3)cc2C(=O)NN2CCN(C)CC2)cc1,-12,-0.4,-2,-5,-2,-7
CCC(NC(=O)Nc1nnc(C(F)(F)F)s1)(C(F)(F)F)C(F)(F)F,9,0.0,3,20,10,-5
O=C(CSc1cn(CCNC(=O)c2cccs2)c2ccccc12)NCc1ccccc1,6,0.0,-3,3,-1,-28
CCC(=O)Nc1cccc(C2=NOC3(C2)C[C@@H](C(N)=O)N(C(=O)C2(C)CC2)C3)c1 (stereo partly specified),-5,-0.5,6,-5,4,-6
O=C1CS/C(=C\[N+](=O)[O-])N1c1ccc(OC(F)(F)F)cc1,19,-0.8,3,2,-3,-9
O=C(COC(=O)c1ccc2ncsc2c1)NCc1ccc(Cl)cc1,18,-0.8,.,0,-7,-16
CC(C)C(NC(=O)c1ccc(C(C)(C)C)cc1)C(=O)N1CCC(C(N)=O)CC1 (stereo unspecified),11,0.2,1,-7,3,-10
Cc1ccccc1NC(=O)/C(C#N)=C\c1ccsc1,-15,1.3,3,1,6,-7

# (continued)
SMILES,TRPML1 inh,TRPML1 ag,CtBP-E1A inh,D2 potentiator,Six1-Eya2 blk,TRPV1 potentiator
C=CCSc1nnc2c(n1)OC(c1c(C)[nH]n(-c3ccccc3)c1=O)Nc1ccccc1-2 (stereo unspecified),-8,-0.2,2,10,-11,9
Nc1nc(F)nc2c1ncn2[C@@H]1O[C@H](CO)[C@@H](O)[C@@H]1O,-1,-0.5,2,-3,-5,6
CC(C)[C@H](NC(=O)c1ccco1)C(=O)NCc1ccccc1,8,-0.2,2,-2,13,-9
O=C(NCc1ccc(F)cc1)Nc1nnc([C@H]2C[C@H](O)[C@@H](CO)O2)s1,.,-0.1,9,-2,-7,.
Cc1cccc2sc(NC(=O)CN3C(=O)c4ccccc4C3=O)nc12,34,-0.4,1,-1,2,3
CN(C)CC1CCCCC1OC(=O)c1ccc(Cl)cc1Cl (stereo unspecified),6,0.7,27,-1,5,1
CC1(C)CN(O)CCN1O,6,1.2,-7,10,5,7
CN(C)CCNC(=O)c1cccc(S(=O)(=O)Nc2ccccc2F)c1,12,0.3,.,-5,-6,-7
Cc1ccc(C(=O)CC(=O)c2cccc(F)c2)c(O)c1,5,1.7,-11,1,-3,-4
CCCn1c(=O)c2c(C(=O)OCC)cc(-c3ccco3)nc2n(CCC)c1=O,3,1.7,5,-6,11,-5

# Given as tab-separated lines: entries from further up.
canonical_smiles	TRPML1 inh	TRPML1 ag	CtBP-E1A inh	D2 potentiator	Six1-Eya2 blk	TRPV1 potentiator
CN(C)CC1CCCCC1OC(=O)c1ccc(Cl)cc1Cl (stereo unspecified)	6	0.7	27	-1	5	1
CC1(C)CN(O)CCN1O	6	1.2	-7	10	5	7
CN(C)CCNC(=O)c1cccc(S(=O)(=O)Nc2ccccc2F)c1	12	0.3	.	-5	-6	-7

# Following part:
SMILES,TRPML1 inh,TRPML1 ag,CtBP-E1A inh,D2 potentiator,Six1-Eya2 blk,TRPV1 potentiator
COc1ccc(C(C)NC(=O)Cc2cccs2)cc1 (stereo unspecified),-15,-0.2,1,-3,-3,-6
CC(=O)Oc1ccc(N2C(=O)C3C4C=CC(CC4)C3C2=O)cc1[N+](=O)[O-] (stereo unspecified),-12,-0.3,.,-7,-1,2
COc1ccc2oc(=O)c(C(=O)NCc3ccc(C)cc3)cc2c1,-3,2.1,.,-9,-3,1
CC1CCC2(CC1)NC(=O)N(CC(=O)Nc1ccc3c(c1)OCO3)C2=O (stereo unspecified),51,-1.7,.,-9,-11,.
c1ccc(OCc2nnc3sc(-c4cccs4)nn23)cc1,-8,0.1,9,2,0,-3
CCC(C)[C@H](NC(=O)NCc1ccc(Cl)cc1)C(=O)O (stereo partly specified),-9,0.2,.,-9,6,4

# 2 compounds from above with just TRPML1 ag.
canonical_smiles	TRPML1 ag
COc1ccc(C(C)NC(=O)Cc2cccs2)cc1 (stereo unspecified)	-0.2
CC(=O)Oc1ccc(N2C(=O)C3C4C=CC(CC4)C3C2=O)cc1[N+](=O)[O-] (stereo unspecified)	-0.3
